# Ecoli rRNA inh: inhibitors of bacterial rRNA selective over humanized ribosomes | hit rate 1.6% among 350,000 | AID 720706 | GFP signal change (wild-type ribosome), % (concentration not given with the values) | E. coli WT GFP vs humanized-ribosome RFP mutants, fluorescence, 24 h; hits give low values; DMSO median 0, no signal -100;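 active = significant combined selectivity score with lowered wild-type GFP, culture density cut under 30%, mutant RFP and density less affected; inactive = any of these conditions unmet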; also: one replicate is shown; some compounds called inactive have numbers as strong as hits
# MLL AF4-AF9 inh: blocks AF4 peptide binding to human AF9 | P42568 | AlphaScreen, biotin-AF4 peptide binding to FLAG-AF9 | inhibition, % at 10 µM | hit rate 0.47% among 350,000;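 active = every replicate reaching a set inhibition limit, whatever the replicate mean, cut at about 25% in these data; inconclusive = mean inhibition reaches that limit but some replicates miss it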;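 also: 0% = plate neutral control median and 100% = total signal loss; the record names both 10 and 1 µM as test concentration; the first replicate is given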
# Ecoli growth: inhibitors of Escherichia coli growth. OD600 absorbance (concentration not given with the values). hit rate 0.21% among 330,000. AID 1053175. OD600, 23 h; hits give low values;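 active = OD600 absorbance below the run mean of sample wells minus 3.6 SD, in any replicate, cut at about 0.56 in these data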;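 also: stock transfer was 300 nL into about 60 µL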
# Vif A3G: HIV-1 Vif–A3G interaction blockers – biochemical, TR-FRET, GST-Vif 1-94, biotin-A3G peptide, dose response retest, primary screen (AID 1117319) | hit rate 0.57% among 260,000 | TR-FRET GST-Vif / biotin-A3G peptide binding; higher % means a stronger effect; test concentration not given here; strong numbers were not always called active | inhibition, %; hits with a dose series show IC50 in µM;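 active = above the screen mean plus three standard deviations and confirmed in dose response; inconclusive = results disagree or hit not tested in dose response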;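 also: Vif residues 1-94 fused to GST binding biotinylated APOBEC3G peptide 110-148; 0% = full assay without inhibitor and 100% = GST in place of GST-Vif; retest series ran down from 100 µM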
# HNF4A DNA FP: change in binding of human HNF4 alpha to DNA. hit rate 0.3% among 360,000. HNF4a-FITC DNA binding, fluorescence polarization, 1 h. AID 1224865. activity change, % at 10 µM; in the data active = activity change above about 30%, passing the limit was not always enough;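 also: controls were the assay level and a saturating level of protein; the project sought stronger binding though the title names inhibitors; some compounds called inactive have numbers as strong as hits; positive values seem to mean higher polarization but the record does not say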
# Target sequence (P41235 whole entry, looked up): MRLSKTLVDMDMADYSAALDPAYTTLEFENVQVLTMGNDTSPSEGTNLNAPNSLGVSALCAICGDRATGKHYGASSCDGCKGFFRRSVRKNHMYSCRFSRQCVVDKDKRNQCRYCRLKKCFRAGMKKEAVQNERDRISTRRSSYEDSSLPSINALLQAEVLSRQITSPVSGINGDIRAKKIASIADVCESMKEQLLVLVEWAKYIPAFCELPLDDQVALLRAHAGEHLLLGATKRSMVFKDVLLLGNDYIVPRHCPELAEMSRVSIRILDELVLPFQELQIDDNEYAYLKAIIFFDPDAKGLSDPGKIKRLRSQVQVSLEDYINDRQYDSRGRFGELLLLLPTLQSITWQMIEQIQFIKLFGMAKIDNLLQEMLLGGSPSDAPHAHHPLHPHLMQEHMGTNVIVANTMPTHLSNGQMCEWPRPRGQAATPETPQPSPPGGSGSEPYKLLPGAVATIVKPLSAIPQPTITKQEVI
# FGF22 binding: FGF22 (human) thermal shift binding | Q9HCT0 | recombinant FGF22 thermal shift, SYPRO orange fluorescence; percent of sucrose octasulfate shift, DMSO zero | calls only at 9.99 µM | hit rate 1.5% among 340,000;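 active = melting point raised past a set limit in the mean and every replicate; inconclusive = no clear call; three in four hits are not shown here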
# Target sequence (Q9HCT0 whole entry, looked up): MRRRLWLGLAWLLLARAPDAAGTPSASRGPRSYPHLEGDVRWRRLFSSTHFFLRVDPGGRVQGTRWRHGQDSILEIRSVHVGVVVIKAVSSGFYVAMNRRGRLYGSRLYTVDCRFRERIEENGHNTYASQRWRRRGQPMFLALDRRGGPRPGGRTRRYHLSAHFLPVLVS
# ALR inh: blocks human ALR sulfhydryl oxidase activity; P55789; purified ALR, DTT oxidation, H2O2 HRP-luminol luminescence; inhibition, % (no concentration beside the values); hit rate 3.8% among 290,000; AID 485317;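 active = mean and each replicate at 75% or more; inconclusive = only one of the two met; inactive = neither met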;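 also: stock transfer was 7.5 nL into about 7.5 µL; 0% = neutral wells and 100% = wells with inactivated enzyme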
# Target sequence (P55789 whole entry, looked up): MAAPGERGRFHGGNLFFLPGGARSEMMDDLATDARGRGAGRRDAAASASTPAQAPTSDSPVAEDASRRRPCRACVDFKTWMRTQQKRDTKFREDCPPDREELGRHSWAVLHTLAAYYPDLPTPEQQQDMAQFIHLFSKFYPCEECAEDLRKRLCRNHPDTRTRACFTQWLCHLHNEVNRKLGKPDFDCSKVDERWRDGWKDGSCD
# Ecoli rRNA inh OD600: also measured in Ecoli rRNA inh; calls as there; OD600 change, %; measured here: OD600 growth;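 optical density of the mix in the first replicate; 0 = DMSO median and -100 = no signal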
# Ecoli rRNA inh RFP: second read-out of Ecoli rRNA inh, no call of its own (marks repeat the call); RFP signal change, %; measured here: RFP humanized mutant strains;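 first replicate; 0 = DMSO median and -100 = no signal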
# * marks the source's active call; other numbers are inactive results; i = inactive; ? = inconclusive; / = no result given; + = active, no number; & = joins results of further samples. A portion of the library (hit frequency here may not be typical).
SMILES,Ecoli rRNA inh,Ecoli rRNA inh OD600,Ecoli rRNA inh RFP,MLL AF4-AF9 inh,Ecoli growth,Vif A3G,HNF4A DNA FP,FGF22 binding,ALR inh
Cn1c(SCc2ccccc2[N+](=O)[O-])nnc1-c1cccnc1,11.3,9.4,0.9,-7.8,0.676,-6.3%,-2.9,i,0.8
O=C(NCC1CCCO1)c1csc2c1CCCCC2 (stereo not drawn),/,/,/,/,0.703,1.2%,1.7,/,-8.2
CCCNC(=O)N(C)C[C@H]1Oc2ncc(C#CCc3ccccc3)cc2C(=O)N([C@H](C)CO)C[C@@H]1C,-2.9,-6.3,0.6,-2.0,/,/,/,i,/
COc1cc(CNCc2ccc(OC)c(OC)c2OC)cc(OC)c1,/,/,/,1.5,0.686,9.4%,-0.6,/,/
CN1C[C@@H]2[C@H](c3ccccc31)[C@H](CO)N2C(=O)CN1CCOCC1,-0.1,-4.2,0.7,-2.3,/,/,/,i,/
CCn1ccc(C(=O)NCc2ccc3c(c2)OCO3)n1,23.6,14.6,2.1,-1.4,0.614,4.8%,-5.1,i,-1.6
CN(CC(=O)Nc1ccc(F)cc1)C(=O)c1ccc(-c2ccc(F)cc2)o1,-7.5,-41.8,-5.1,1.6,/,/,4.9,i,/
O=S(=O)(NC1CC1)c1ccc(S(=O)(=O)N(Cc2ccccn2)C2CC2)cc1,-2.4,6.5,2.5,-5.7,0.69,-2.4%,2.4,i,-19.5
CN(C)C(=O)C[C@H]1C=C[C@H](NS(=O)(=O)c2ccccc2)[C@@H](CO)O1,-0.6,5.0,-1.5,-0.7,/,/,/,i,/
O=C(NCc1ccccc1)C12CN(Cc3ccccc3)CC1C(c1cccc([N+](=O)[O-])c1)=NO2 (stereo not drawn),-1.1,4.5,-18.9,4.7,0.683,11.3%,0.1,i,-4.2
COc1ccc(NC(=O)N(C)C[C@H]2Oc3ccc(NC(=O)c4ccncc4)cc3CC(=O)N([C@@H](C)CO)C[C@H]2C)cc1,4.3,4.4,1.3,-1.9,/,/,/,i,/
COc1ccc(-c2ccc3[nH]c4c(c3c2)CCN2C(=O)[C@@H]([C@H](C)O)[C@@H](N(C)C(=O)Nc3ccc(F)cc3)C[C@@H]42)cc1,/,/,/,-1.3,/,-10.1%,1.9,i,/
CSc1cccc(-c2nnc(NC(=O)c3cccc(N4C(=O)CCC4=O)c3)o2)c1,-36.1,-58.0,-7.0,-0.9,0.626,-2.1%,-0.4,i,/
Cc1c(OCC(=O)N2CCC(C(=O)NCCCC(=O)O)CC2)ccc2c1oc(=O)c1ccccc12,6.6,4.6,0.8,-4.6,0.703,/,0.8,i,-9.6
C[C@H]1CN([C@@H](C)CO)C(=O)Cc2cc(NS(=O)(=O)c3cccs3)ccc2O[C@H]1CN(C)CC1CC1,0.4,3.5,-2.2,-1.9,/,/,/,i,/

# A few values from the list.
# `COc1ccc(NC(=O)N(C)C[C@H]2Oc3ccc(NC(=O)c4ccncc4)cc3CC(=O)N([C@@H](C)CO)C[C@H]2C)cc1` – Ecoli rRNA inh: 4.3
# `O=C(NCc1ccccc1)C12CN(Cc3ccccc3)CC1C(c1cccc([N+](=O)[O-])c1)=NO2` (stereo not drawn) – MLL AF4-AF9 inh: 4.7

# The listing continues.
SMILES,Ecoli rRNA inh,Ecoli rRNA inh OD600,Ecoli rRNA inh RFP,MLL AF4-AF9 inh,Ecoli growth,Vif A3G,HNF4A DNA FP,FGF22 binding,ALR inh
Cc1ccc(CNC(=O)C2c3ccccc3C(=O)N3CCc4ccccc4C23)o1 (stereo not drawn),/,/,/,/,0.658,>100µM*,1.6,/,5.4
C=CC1=CCN(S(=O)(=O)C(C)(C)C)[C@H]1CCO,-1.2,-2.5,3.7,-6.8,/,-7.9%,1.2,i,/
Cc1ccc(C2NC(=S)NC3=C2C(=O)CC(C)(C)C3)cc1 (stereo not drawn),-1.2,-6.7,-6.2,-10.2,0.694,/,-1.0,i,-10.1
CCC(=O)Nc1ccc2c(c1)ncn2-c1ccccc1C,8.8,-3.5,-4.6,-0.6,0.653,/,0.8,i,/
COCCN(C(=O)COC(=O)C12CC3CC(CC(Cl)(C3)C1)C2)c1c(N)n(Cc2ccccc2)c(=O)[nH]c1=O,1.8,7.7,-3.9,5.6,0.687,/,-0.5,i,-1.9
CC(=O)c1ccc(NC(=O)c2noc(C(C)C)c2[N+](=O)[O-])cc1,2.3,-6.9,1.4,-2.1,0.687,?,-1.0,+,-10.5
CCOC(=O)c1cnc(-c2ccccc2)nc1Oc1cccc(Cl)c1,/,/,/,/,0.737,-1.8%,1.0,/,1.5
O=[N+]([O-])c1cc(-c2ccc(C(=S)N3CCOCC3)o2)ccc1Cl,-13.2,-14.8,28.9,19.9,0.713,12.3%,-2.2,i,62.3
O=C(/C=C/c1ccccc1)OCC(=O)c1ccc[nH]1,1.2,1.1,-1.1,0.0,0.663,0.7%,1.8,i,-2.1
C[C@@H]1CN([C@@H](C)CO)C(=O)Cc2cc(NC(=O)Nc3ccc4c(c3)OCO4)ccc2O[C@H]1CN(C)Cc1ccc2c(c1)OCO2,2.3,-12.3,11.8,25.4*,/,/,/,i,/
O=C(CSc1nnc(-c2cccs2)n1Cc1ccccc1)N1CCc2ccccc2C1,/,/,/,/,0.81,0.0%,1.7,/,-0.5
CCCCCC(=O)NC(Cc1ccc(OC)c([N+](=O)[O-])c1)C(=O)O (stereo not drawn),9.9,15.0,3.4,1.0,0.676,14.5%,0.0,i,-6.4
CCOc1cccc(NC(=O)c2cnccc2C(F)(F)F)c1,12.8,4.6,4.5,0.3,0.655,/,0.5,i,-35.7
COc1ccc2c3c(n(C)c2c1)[C@@H](CO)N(C(=O)CC1CC1)CC31CN(C(=O)NC(C)C)C1,0.7,3.7,-3.8,-0.2,/,/,/,i,/
Cc1oc(-c2ccccc2F)nc1CS(=O)CC(=O)NCc1ccc(Cl)cc1 (stereo not drawn),-3.1,-2.8,-2.9,-5.8,0.672,1.5%,5.2,i,59.4
CN1CCN(NC(=O)c2cc(-c3cccc(Cl)c3)nc3ccccc23)CC1,10.4,13.4,-0.5,0.4,0.706,5.6%,-0.7,/,-11.0
Cc1ccccc1-c1n[nH]nc1C1=CC(=O)C[C@H](c2ccc(F)cc2)C1,-30.7,-48.0,-16.9,-2.3,/,-5.8%,6.1,i,/
COc1ccc(-c2cc(C(F)(F)F)nc(SCCC(=O)Nc3cc(C)on3)n2)cc1,/,/,/,/,0.784,-9.0%&-1.3%,-0.6,/,/
COc1ccc(CC(=O)OCC(=O)Nc2c(C)n(C)n(-c3ccccc3)c2=O)cc1OC,/,/,/,-1.4,0.68,-12.4%,-2.1,i,-2.9
Cc1ccc(NC2CCCN(C(=O)CCc3cn[nH]c3)C2)cc1C (stereo not drawn),10.7,10.2,2.4,0.3,0.644,/,-0.9,i,98.7*
COCc1cn(CC[C@@H]2CC[C@@H](NC(=O)c3ccc(F)cc3)[C@H](CO)O2)nn1,0.1,5.0,-1.5,0.5,/,/,/,i,/
COc1ccc(OCCCC(=O)N2CCN(S(=O)(=O)c3cccc(F)c3)CC2)cc1,-1.2,-2.7,2.3,3.3,0.696,-6.7%,-2.5,i,19.3
COc1ccc(N2CCN(C(=O)CNC(=O)c3cn(-c4ccccc4OC)c(=O)c4ccccc34)CC2)cc1,4.4,-2.8,-1.8,4.6,0.697,9.3%,0.8,/,49.8
Cc1ccc(C)c(N(C(=O)CS(=O)CC(=O)Nc2ccc3c(c2)OCO3)C(C)C(=O)NC2CCCC2)c1 (stereo not drawn),/,/,/,/,0.721,0.5%,1.3,/,-20.0
O=C(O)c1ccccc1C(=O)NCCCCCCNC(=O)c1ccccc1C(=O)O,-0.1,1.2,0.7,-1.1,0.668,/,0.8,i,-10.0
COc1ccc(NC(=O)Nc2ccc3c(c2)CC(=O)N([C@H](C)CO)C[C@H](C)[C@H](CN(C)S(=O)(=O)c2c(C)noc2C)O3)cc1,1.8,-3.7,0.0,1.8,/,/,/,i,/
CS(=O)(=O)N1CCC(C(=O)Nc2cccc(Cl)c2)CC1,5.4,6.9,-0.6,0.6,0.707,-10.5%,0.4,i,-6.1
CCn1c(C)cc(O)c(C(=O)Nc2cccc(Cl)c2)c1=O,0.7,2.5,-1.6,0.0,0.65,/,-2.4,i,3.0
Cc1ccc(S(=O)(=O)N(CC(=O)NCc2cccs2)c2ccccc2)cc1,4.1,5.4,0.5,0.1,0.586,0.2%,-1.0,i,/
CCCOC(=O)C1=C(C)NC2=C(C(=O)CC(C)(C)C2)C1c1ccc(N(C)C)cc1 (stereo not drawn),/,/,/,/,0.779,9.0%,0.3,/,/
CC(C)N(C(=O)Cn1cc(S(=O)(=O)CC(=O)NCc2ccc(F)cc2)c2ccccc21)C(C)C,-1.9,1.9,-0.7,-3.8,0.72,/,1.3,i,-23.2
CC(=O)NC(CSC(CC(=O)c1ccco1)c1ccc(C)cc1)C(=O)O (stereo not drawn),-6.7,7.7,-9.9,3.1,0.679,17.0%,1.0,i,9.4
O=C(COC(=O)c1cc(NS(=O)(=O)c2cccs2)ccc1O)Nc1ccccc1,-17.3,-8.1,9.1,3.8,0.694,13.1%,-2.1,i,13.6
c1ccc2c(c1)CC(N1CCCCC1)c1ccccc1S2 (stereo not drawn),-4.6,0.6,59.6,-3.5,0.624,/,21.9,i,0.6
COc1cc(CNCc2cc(OC)ccc2OC)cc(OC)c1,8.3,6.2,2.3,-1.7,0.702,/,-3.2,i,-3.8
C[C@@H]1CN([C@H](C)CO)C(=O)Cc2cc(NC(=O)Cc3ccccc3)ccc2O[C@@H]1CN(C)Cc1ccc(C(=O)Nc2ccccc2N)cc1,-1.1,-3.8,-0.6,-0.4,/,/,/,i,/
C[C@H](CO)N1C[C@H](C)[C@@H](CN(C)S(=O)(=O)c2ccc(Cl)cc2)Oc2ccc(NC(=O)Cn3cnnn3)cc2C1=O,2.0,3.0,-0.4,-11.8,/,/,/,i,/
CC(C)C[C@H](NC(=O)NCc1ccc(F)cc1)C(=O)O,2.7,6.6,4.4,3.6,0.689,-2.9%,-3.8,i,-40.3
COC(=O)c1ccc(N2C(=O)C3CC=CC(C)C3C2=O)cc1 (stereo not drawn),10.6,9.8,0.9,-10.8,0.698,-0.3%,8.9,i,-0.6
C[C@H](CO)N1C[C@H](C)[C@H](CN(C)C(=O)Nc2cccc3ccccc23)Oc2c(NC(=O)C3CC3)cccc2C1=O,-4.9,0.3,0.1,-0.8,/,/,/,i,/
Cn1nc(C(F)(F)F)c(C#N)c1N1CCN(c2ccccn2)CC1,-1.3,5.6,-2.9,-0.6,0.67,-4.2%,2.7,/,3.7
NC(=O)[C@H](Cc1cc2ccccc2s1)NC(=O)[C@@H]1CC2(CC(c3cccc(NC(=O)[C@@H]4CCC(=O)N4)c3)=NO2)CN1C(=O)c1ccccc1 (stereo partly drawn),-2.0,-4.2,-4.2,1.0,0.773,5.0%,1.4,i,-9.7
O=C(COC(=O)Cc1ccc(S(=O)(=O)N2CCCCC2)s1)Nc1ccc2c(c1)OCO2,/,/,/,/,0.763,5.0%,3.1,/,-0.4
COc1ccc(-c2ccc3c(c2)[C@@H]2[C@@H](CCN2S(=O)(=O)c2ccc(OC)cc2)[C@H](CO)N3C)cc1,2.4,4.5,-5.0,1.1,/,/,/,i,/
CCn1c2ccccc2c2cc(NC(=O)c3cc(C)on3)ccc21,-15.5,20.0,2.6,-2.3,0.7,-7.8%,-1.5,i,-2.5
Cc1ccc(S(=O)(=O)N(C)C)cc1NC(=O)CSc1nncs1,3.4,2.8,-2.5,-10.6,0.69,7.6%,-1.1,i,-3.9

# Screening data from PubChem.
